# KCNQ2 block – KCNQ2 potassium channel inhibitors, primary screen, cell-based, CHO-K1, FluxOR thallium flux, B-score (AID 2156). 20 min; stronger effect = lower value; only compounds with negative scores are shown here; some inactives read as strong as hits. B-score at 10 µM. hit rate 1.1% among 310,000;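 active means fluorescence ratio B-score at most minus 3 library SDs, with starting brightness B-score within 2 library SDs, cut at about -5.5 in these data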
# Target sequence (O88943 whole entry, looked up): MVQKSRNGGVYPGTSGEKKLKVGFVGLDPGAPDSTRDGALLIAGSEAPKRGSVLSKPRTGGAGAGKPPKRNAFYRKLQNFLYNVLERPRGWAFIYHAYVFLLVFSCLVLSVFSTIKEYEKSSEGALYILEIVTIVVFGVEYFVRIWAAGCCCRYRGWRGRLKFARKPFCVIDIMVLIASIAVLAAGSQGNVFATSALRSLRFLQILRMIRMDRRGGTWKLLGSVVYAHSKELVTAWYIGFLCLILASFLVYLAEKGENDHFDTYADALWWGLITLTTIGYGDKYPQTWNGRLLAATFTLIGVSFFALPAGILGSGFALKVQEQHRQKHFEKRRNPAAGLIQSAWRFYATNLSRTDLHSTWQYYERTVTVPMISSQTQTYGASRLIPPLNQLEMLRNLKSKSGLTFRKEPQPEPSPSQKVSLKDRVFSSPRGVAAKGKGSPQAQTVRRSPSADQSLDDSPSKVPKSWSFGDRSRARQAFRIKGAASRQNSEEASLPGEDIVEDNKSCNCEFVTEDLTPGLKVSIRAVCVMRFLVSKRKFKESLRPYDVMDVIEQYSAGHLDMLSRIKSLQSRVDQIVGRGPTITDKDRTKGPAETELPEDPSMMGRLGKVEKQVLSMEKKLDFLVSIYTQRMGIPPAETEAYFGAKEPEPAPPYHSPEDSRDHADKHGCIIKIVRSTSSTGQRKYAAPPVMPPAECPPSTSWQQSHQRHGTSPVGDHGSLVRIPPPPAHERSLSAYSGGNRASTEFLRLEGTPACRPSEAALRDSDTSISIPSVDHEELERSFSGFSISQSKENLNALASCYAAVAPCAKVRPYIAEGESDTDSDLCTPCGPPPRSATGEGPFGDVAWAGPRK
# KCNQ2 block baseline – further read-out of KCNQ2 block, marked with its call; B-score; measured here: initial fluorescence intensity artifact check;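 brightness before thallium and not channel activity; 0 = typical well and far values either way flag optical interference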
# * marks the source's active call; other numbers are inactive results; i = inactive. These rows are one share of the data. The share of hits here may be higher or lower than overall.
# Sample of the layout:
# Results follow in this order: KCNQ2 block	KCNQ2 block baseline
CCCCNC(=O)CCn1c(=O)c2ccccc2n(Cc2ccc(Cl)cc2)c1=O
    i	-1.14
Cc1ccc(Nc2cccccc2=O)cc1
    i	-0.97
COC1CCCN(C(=O)c2ccc3nc(Cc4cccc(Cl)c4)oc3c2)C1 (stereo not drawn)
    i	0.36
CCOc1ccc(C(=O)C2CCN(C(=O)c3ccc([N+](=O)[O-])cc3)CC2)cc1
    i	0.9
COCC(C)NCc1cccc(C)c1 (stereo not drawn)
    i	-1.06

# The whole of this part (from the top)
# Results follow in this order: KCNQ2 block	KCNQ2 block baseline
CCCCNC(=O)CCn1c(=O)c2ccccc2n(Cc2ccc(Cl)cc2)c1=O
    i	-1.14
Cc1ccc(Nc2cccccc2=O)cc1
    i	-0.97
COC1CCCN(C(=O)c2ccc3nc(Cc4cccc(Cl)c4)oc3c2)C1 (stereo not drawn)
    i	0.36
CCOc1ccc(C(=O)C2CCN(C(=O)c3ccc([N+](=O)[O-])cc3)CC2)cc1
    i	0.9
COCC(C)NCc1cccc(C)c1 (stereo not drawn)
    i	-1.06
NS(=O)(=O)c1ccc(CCNC(=O)C2CCN(c3ncnc4c3nc3n4CCCCC3)CC2)cc1
    i	-1.21
O=C(Nc1cccc2cccc(NC(=O)c3ccco3)c12)c1ccco1
    i	0.66
CCCN1C(=O)C(O)(C2CC(=O)CC(C)(C)O2)c2ccccc21 (stereo not drawn)
    i	0.68
O=C(O)CN1C(=O)C2C3C=CC(C3)C2C1=O (stereo not drawn)
    i	0.65
COc1ccc(/C=N\NC(=O)c2cc(O)c(O)c(O)c2)cc1CN1CCN(c2ccc(F)cc2)CC1
    i	1.56
O=C(Nc1ccccc1-c1nnn(CC(=O)N2CCN(c3ccccc3)CC2)n1)c1cccs1
    i	2.92
Cc1nn(C(=O)c2cccc([N+](=O)[O-])c2)c(C)c1Cl
    i	0.19
COc1ccc(CNC(=O)C2CC(c3cccc(OC)c3)=NO2)cc1 (stereo not drawn)
    i	-1.11
CN1CCc2c(sc3nc(SCC(N)=O)n(-c4ccc(Cl)cc4)c(=O)c23)C1
    i	-0.03
CSCc1ccc(C(=O)NCC(c2cccs2)N2CCOCC2)cc1 (stereo not drawn)
    i	0.77
N#Cc1c2n(c3c(=O)n(Cc4ccc(Cl)cc4)cnc13)CCCC2
    i	-1.2
COc1ccc(S(=O)(=O)N2CCC(C(=O)N3CCCCCC3)CC2)cc1
    i	-1.02
CCc1ccc(CN(C)C(=O)c2cc(COc3cccc(C(F)(F)F)c3)on2)nc1
    i	1.22
CS(=O)(=O)c1ccc(C(=O)Nc2ccc(N3CCOCC3)cc2)c(Cl)c1
    i	2.68
CN(CC(=O)Nc1c(Cl)cccc1Cl)C(=O)c1cc(-c2cccs2)nn1-c1ccccc1
    i	-0.46
O=C(NCc1ccc2c(c1)OCO2)C1COc2ccccc2O1 (stereo not drawn)
    i	1.61
Cc1ccc2[nH]c3c(c2c1)CN(C(=O)CN1CCSCC1)CC3
    i	1.72
COc1cc(OC)cc(C(=O)NC(=S)NCc2ccco2)c1
    i	3.44
CCOC(=O)C1CCN(S(=O)(=O)c2ccc3c(c2)NC(=O)C(C)S3)CC1 (stereo not drawn)
    i	-2.1
CCOC(=O)c1[nH]c(C)c(/C(O)=C2\C(=O)C(=O)N(CCN(C)C)C2c2ccco2)c1C (stereo not drawn)
    i	-1.49
O=C(NCc1csc(-c2cccs2)n1)c1ccccc1
    i	3.73
O=C(N=Nc1c(O)n(Cc2ccccc2)c2ccccc12)c1ccncc1
    i	-1.51
CCOc1ccc(N(C(C)C(=O)Nc2cccnc2)S(C)(=O)=O)cc1 (stereo not drawn)
    i	-0.32
COc1cc(NC(=O)CS(=O)(=O)c2ccccc2)cc(OC)c1OC
    i	0.21
CCC1C=C(c2ccccc2)C=CN=C1N(CC)CC (stereo not drawn)
    i	0.71
CCNC(=S)N1CCN=C1Nc1nc(C)cc(C)n1
    i	0.16
CC1(c2ccc(NC(=O)c3ccccc3F)cc2)CC1(Cl)Cl (stereo not drawn)
    i	0.53
Cc1cccc(C)c1NC(=O)CS(=O)CC(=O)N1CCN(c2ccccc2)CC1 (stereo not drawn)
    i	-0.12
COc1ccccc1CCc1nnc(CCC(=O)NC(C)Cc2cccc(C)n2)o1 (stereo not drawn)
    i	0.25
COc1cc(/C=N/NC(=S)Nc2cccc(C(=O)O)c2)ccc1O
    i	0.99
CCn1c(COc2cccc(OC)c2)nnc1SCC(=O)NCC1CCCO1 (stereo not drawn)
    i	0.61
O=S(=O)(c1ccc2[nH]c3c(c2c1)CCCC3)N1CCCCC1
    i	-1.03
NC(=O)CC(NC(=O)OCc1ccccc1)C(=O)O (stereo not drawn)
    i	-0.22
O=C(COC(=O)c1cc[n+]([O-])cc1)Nc1c(Cl)cccc1C(F)(F)F
    i	-1.11
CSC1=N/C(=C\C=C\c2cccs2)C(=O)S1
    i	-1.2
COc1c(C)cc(C(=O)C2CCCN(C(=O)c3ccc4cc[nH]c4c3)C2)cc1C (stereo not drawn)
    i	-0.07
CCOC(=O)c1ccc(CNC(=O)c2cc(COc3ccccc3SC)on2)o1
    i	-0.04
CC(=O)/C(=C/c1ccc(N(C)C)cc1)C(=O)c1ccccc1
    i	1.75
Cc1nnc(SCc2ccccc2)n(N)c1=O
    i	1.58
O=C(Cn1c(=O)n(CCc2c[nH]c3ccccc23)c(=O)c2cccnc21)Nc1ccccc1F
    i	-0.06
O=C(CSc1ncn[nH]1)Nc1nc(-c2cccc([N+](=O)[O-])c2)cs1
    i	2.29
COc1ccccc1C(=O)NC(C)C(c1cccs1)N1CCOCC1 (stereo not drawn)
    i	0.25
CC1CC(O)C(C)CN1 (stereo not drawn)
    i	0.24
CCOc1ccccc1NC(=O)C1CCN(C(=O)Cc2ccccc2)CC1
    i	1.2
CC12CCC(C(=O)N(Cc3ccccc3)Cc3ccccc3)(OC1=O)C2(C)C (stereo not drawn)
    i	-0.25
CCN(CC)C(=O)CSc1nc2c(sc(=S)n2-c2ccccc2)c(=O)n1-c1ccc(OC)cc1OC
    i	-0.93
Cc1cccc(CN2CCN(c3nc4nonc4nc3NC3CC3)CC2=O)c1
    i	1.82
CCn1c(SCC(=O)Nc2cc(OC)ccc2OC)nnc1C1CCCCC1
    i	-0.58
Cc1ccc(N2C(=O)c3ccccc3C2Nc2ccccc2)nc1 (stereo not drawn)
    i	-0.02
Cc1cccc(-n2c(CCc3ccccc3)nnc2SCC(=O)c2ccccc2)c1
    i	0.06
O=C(O)CCCC(=O)Nc1ccccc1Br
    i	1.32
CCN(CC)c1ccc(C=Nc2cc(C)cc(C)c2)c(O)c1
    i	-2.32
c1ccc2c(Nc3nc(N4CCOCC4)c4ccccc4n3)cccc2c1
    -6.55*	0.24*
Cc1ccc(S(=O)(=O)Nc2ccc(C(OC(=O)c3ccccc3[N+](=O)[O-])(C(F)(F)F)C(F)(F)F)cc2)cc1
    i	4.38
CCOc1cc(NC(=O)C2CCCO2)c(OCC)cc1NC(=O)C1CC1 (stereo not drawn)
    i	0.14

# The listing continues:
SMILES | KCNQ2 block | KCNQ2 block baseline
O=C(/C=C/Nc1ccccc1)c1ccccc1 | i | 1.24
CCCN(CCC)CCNC(=O)C(NS(=O)(=O)c1ccc2c(c1)CCC(=O)N2)c1ccccc1 (stereo not drawn) | i | 2.94
COc1ccccc1NS(=O)(=O)c1cccc(C(=O)N/N=C/c2ccc(NC(C)=O)cc2)c1 | i | -2.26
COc1ccc(C(=O)Nc2c(C(C)(C)C)nn(C)c2C(C)(C)C)cc1 | i | -1.54
O=C1NC(Cc2c[nH]c3ccccc23)C(=O)N1Cc1cccc2ccccc12 (stereo not drawn) | i | -0.03
O=C(O)CCn1c(SCc2cc(=O)n3ccccc3n2)nc2ccsc2c1=O | i | 0.77
CC(C)CC(=O)Nc1ccc(Oc2ccc3c(c2)C(=O)NC3=O)cc1 | i | -0.57
CCOc1cc(C2NC(=O)NC(C)=C2C(C)=O)cc(Cl)c1OCC(=O)O (stereo not drawn) | i | 3.27
CCN(C(=O)c1cc2c(=O)n3cccc(C)c3nc2n1CCCOC)C1CCCCC1 | i | -3.05
CC(C)(C)[C@@H]1C=C(C(=O)O)O[C@H](OCCCCO)C1 | i | 3.08
Cc1onc(-c2c(Cl)cccc2Cl)c1C(=O)O/N=C(\C#N)c1c(Cl)cccc1Cl | i | 1.17
Cc1sc2nc(CSC(C)C(=O)Nc3ccc(C#N)cc3)[nH]c(=O)c2c1C (stereo not drawn) | i | -0.76
CC(/C=C/c1ccccc1)=N\NC(=O)c1ccc(Br)cc1 | i | 0.65
Fc1ccc(CN2CCN(c3ncnc4scc(-c5ccc(F)cc5)c34)CC2)cc1 | i | -1.57
COc1ccc(N2CCN(C3CCCN(Cc4ccc(F)cc4)C3)CC2)cc1 (stereo not drawn) | i | -0.03
CC1CCCCN1S(=O)(=O)c1ccc(S(=O)(=O)N2CCN(C)CC2)cc1 (stereo not drawn) | i | 2.04
CCCCOC(=O)Nc1ccc(S(=O)(=O)Nc2cc(C)nc(C)n2)cc1 | i | 1.9
Nc1ccc(Br)cc1C(=O)O | i | 1.35
Cn1nccc1NC(=O)CSCC(=O)O | i | -0.43
CN(C)c1nc2c(c(=O)n(C)c(=O)n2C)n1Cc1ccccc1 | i | -2.36
CCOc1ccc(Nc2nc(Cl)nc(N3CCN(c4ccc(OC)cc4)CC3)n2)cc1 | i | 0.47
CC(=O)NC(CCS(C)(=O)=O)C(=O)Nc1cc(Cl)ccc1Cl (stereo not drawn) | i | -0.88
Cc1ccc(S(=O)(=O)/N=C(\N)c2ccc(F)cc2)cc1 | i | -0.11
COCCn1c(-c2ccc3ccccc3c2)nc2c1c(=O)[nH]c(=O)n2CC(C)C | i | 0.04

# One compound at a time, from the list above. Order of screens: KCNQ2 block | KCNQ2 block baseline
# Listed for `CC(=O)/C(=C/c1ccc(N(C)C)cc1)C(=O)c1ccccc1` = i | 1.75
# Listed for `Cc1nnc(SCc2ccccc2)n(N)c1=O` = i | 1.58
# Listed for `COc1ccc(C(=O)Nc2c(C(C)(C)C)nn(C)c2C(C)(C)C)cc1` = i | -1.54
# Listed for `CCOC(=O)c1[nH]c(C)c(/C(O)=C2\C(=O)C(=O)N(CCN(C)C)C2c2ccco2)c1C` (stereo not drawn) = i | -1.49

# (next part)
SMILES | KCNQ2 block | KCNQ2 block baseline
COc1ccc(C(=O)COC(=O)c2cc3ccccc3oc2=O)c(OC)c1 | i | 2.19
CCOc1ccccc1/C=N/NC(=O)c1cccc(Cl)c1 | i | -1.02
COc1ccc(CCNCC(O)Cn2ccc3ccccc32)cc1OC (stereo not drawn) | i | 3.05
O=C(COc1ccc(C(=O)c2ccccc2)cc1)NCc1ccc(F)cc1 | i | -0.47
COCCCNc1nc2ccccc2nc1NS(=O)(=O)c1cccs1 | i | -0.66
Cn1c(=O)cc(SCC(=O)NCCCN2CCN(c3ccc(F)cc3)CC2)c2ccccc21 | i | 1.06
CCCCCC(=O)NC(=S)Nc1ccccc1C(=O)OC | i | 2.59
CC1CCN(c2ccccc2NC(=O)c2cc([N+](=O)[O-])ccc2N2CCOCC2)CC1 | -5.67* | 0.57*
Cc1cc(S(=O)(=O)N(Cc2ccc(C(C)(C)C)cc2)Cc2cccs2)ccc1-n1cnnn1 | i | -0.31
CCOC(=O)CCCCC(=O)c1[nH]c(=O)[nH]c1CSc1nc2ccccc2[nH]1 | i | -0.28
Cn1nnnc1SCc1csc(Nc2ccccc2)n1 | i | 0.46
C#CCNC(=O)C1=C[C@H](c2csc3ccccc23)C[C@H](OCc2ccc(CO)cc2)O1 | i | -2.01

# Two compounds drawn at random from the list so far:
SMILES | KCNQ2 block | KCNQ2 block baseline
Cn1c(=O)cc(SCC(=O)NCCCN2CCN(c3ccc(F)cc3)CC2)c2ccccc21 | i | 1.06
COc1cc(NC(=O)CS(=O)(=O)c2ccccc2)cc(OC)c1OC | i | 0.21

# The list continues.
SMILES | KCNQ2 block | KCNQ2 block baseline
Cn1cnnc1SCCC(=O)Nc1ccccc1 | -8.26* | -0.87*
CCc1cc(-c2[nH]ncc2-c2ccc3c(c2)OCO3)c(O)cc1O | i | -0.07
CCc1ccc2nc(N(CCN(C)C)C(=O)c3ccc4ncsc4c3)sc2c1 | i | 0.46
O=C(CSc1nnc(Cc2cccs2)n1Cc1ccco1)Nc1cc(Cl)cc(Cl)c1 | i | -0.13
NNC(=O)CCn1c2ccccc2c2ccccc21 | i | -0.08
CCCn1nnc2ccccc2c1=O | i | -0.61
Cc1c(C#N)c2ccccc2n1CC(=O)O | i | 0.53
CC(=O)Nc1ccc(S(=O)(=O)NCc2ccncc2)cc1 | i | 0.97
Cc1ccc(NC(=O)N2CCC(c3ccccc3)C2)cc1C (stereo not drawn) | i | -2.16
COc1cc2c(cc1OC)C(C)=NCC2 | i | 0.8
CCOC(=O)C(Sc1n[nH]c(N)n1)c1ccccc1 (stereo not drawn) | i | 2.08
COc1ccc(S(=O)(=O)N2CCN(C(=O)c3cc(C)oc3C)CC2)cc1 | i | 1.95
CC(=O)N(/N=C/c1ccc(C)cc1)c1nc(CCl)cs1 | i | -0.89
Cn1c(CNc2nc3ccccc3n2CCN2CCCCC2)nc2ccccc21 | i | 0.45
COc1ccc(CSc2ccc(-c3nc4ccccn4c3NCc3ccccc3)cc2OC)cc1 | i | -1.06
COc1cc(OC)c(C(=O)/C=C/c2ccc(OCc3ccccc3)c(OC)c2)c(OC)c1 | i | -0.24
COc1ccc(-c2c(C(=O)O)c(C(=O)O)c3n2CCC3)cc1 | i | 0.08
Cc1cccc(CCN(CC(=O)NC2CCCCC2)C(=O)c2csnn2)c1 | i | 2.39
Cc1nn2c(nc(N3CCOCC3)c3ccccc32)c1C=C(C#N)C#N | i | 1.15
O=C(C1CCN(c2ncnc3c2nc2n3CCCCC2)CC1)N1CCN(c2ccc(F)cc2)CC1 | i | -0.42
Cn1nnc(NC(=O)CSc2ccc(Cl)cc2)n1 | i | 0.25
O=c1c2cc(N3CCOCC3)ccc2[nH]c(=S)n1CCCN1CCCCC1 | i | 0.39

# From PubChem
